Biofilm kill mix – mixture kills Candida albicans biofilm cells; C. albicans biofilm persisters + clotrimazole, fluorescence viability; primary screen in compound mixtures of four per well; inhibition, % at 7.6 µM; actives 0.02% (n = 120,000); AID 1242;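 active = inhibition above 30.3% in the primary screen of four-compound pools, then above 30% when the compound was retested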;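 also: compounds exposed to preformed 24 h biofilms for 48 h; the number belongs to the whole pool; some results filed as inactive read as strong as hits; inactives centre near 12; 0% = biofilm with clotrimazole alone and 100% = kill control; retested singly at about 60 µM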
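Assay system: C. albicans biofilms / Medium: RPMI/MOPS medium, pH 7.0 / Schedule: biofilm formation 24 h, compound exposure 48 h, 37 °C / Measured by: Alamar Blue fluorescence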
An asterisk follows results filed as active.

SMILES | Biofilm kill mix
Cc1ccc(NC(=O)CCNS(=O)(=O)c2cc(Br)cnc2N)c(Cl)c1 | 8
CC(C)c1ccc(/C=C/C(=O)O)cc1 | 4
CCc1ccc(N2C(=O)CN(Cc3sccc3C)C2=S)cc1 | 27
CC(C)(C)C1CCC(OC(=O)C[N+]2(C)CCCC2)CC1 (configuration not stated) | 8
Cc1ccc(CNC(=O)C2CCCN(S(=O)(=O)c3c(C)[nH]c(=O)[nH]c3=O)C2)cc1 (configuration not stated) | 7
O=C(NCc1cccnc1)C1CCC(CNS(=O)(=O)c2cccc3nsnc23)CC1 (configuration not stated) | 11
Cc1ccc2nc(-c3cccnc3)c(NC3CCCCC3)n2c1 | -2
CCOc1nc2c(c(-c3cccs3)c1C#N)Cc1ccccc1-2 | 13
CCOC(=O)C1=C(c2ccccc2)NC(=O)NC1c1ccc(OC)cc1 (configuration not stated) | 5
O=C(NCc1cccc(Cl)c1)c1ccc(S(=O)(=O)Nc2cccc(C(F)(F)F)c2)cc1 | 10
COc1ccc(OCC(O)CNC(=O)Nc2ccccc2)cc1 (configuration not stated) | -1
CCOc1ncccc1C(=O)OC(C)C(=O)Nc1ccc(CC)cc1 (configuration not stated) | 9
Cn1c(CSCc2ccccc2)nnc1SCC(=O)Nc1nccs1 | 5
N/C(=N\OC(=O)c1cccnc1)c1ccc(Cl)cc1Cl | 7
Cc1csc2c(=O)sc(NC(=O)c3ccc(F)cc3Cl)nc12 | 18
COc1ccc(Nc2oc(-c3ccco3)nc2S(=O)(=O)c2ccc(F)cc2)cc1 | 3
CCNC(=O)NC(=O)CSc1ccc2ccccc2c1 | 8
O=C(Nc1nc(-c2ccncc2)cs1)c1ccc(F)cc1 | 13
O=C(NNC(=O)c1ccncc1)Nc1ccc([N+](=O)[O-])cc1 | -6
COc1ccc(NC(=O)/C(C#N)=C/c2c(C)nn(-c3ccc(F)cc3)c2Cl)cc1Cl | 8
O=C(Nc1ccccc1[N+](=O)[O-])c1cncc(Br)c1 | 9
C/C(=N\Nc1cc(N2CCOCC2)nc(C)n1)c1cccc([N+](=O)[O-])c1 | 9
CCn1c(S(=O)(=O)O)nc2ccccc21 | 15
COCc1c(C#N)c(NCCc2ccc(F)cc2)nc(C)c1[N+](=O)[O-] | 2
CN(C)c1ccc(N=Nc2cccc3ccoc23)cc1 | 13

(more compounds)
SMILES | Biofilm kill mix
O=C(c1snnc1-c1ccccc1)N1CCOCC1 | 14
O=C(Nc1ccc(S(=O)(=O)N2CCCC2)cc1)c1ccc(OCC2CCCO2)cc1 (configuration not stated) | 0
CCCSc1sc(C(=O)OC)c(-c2cccs2)c1C#N | 12
CCCC(C)NC(=O)COc1ccc(Sc2ccc(OCC(=O)NC(C)CCC)cc2)cc1 (configuration not stated) | 22
Cc1ccc(N2CN=C3SCC(=O)N3C2)cc1C | 10
CCOC(=O)CC1COCCN1Cc1cn[nH]c1-c1ccc2c(c1)OCO2 (configuration not stated) | 24
O=C(c1cc(Cl)ccc1[N+](=O)[O-])N1CCc2ccccc2C1 | 18
CN(C)C(=O)CSc1nnc(NC(=O)CCc2ccccc2)s1 | 14
CC(C)(C)NC(=O)C(c1cccnc1)N(C(=O)c1csnn1)c1ccccc1 (configuration not stated) | 23
COCCCNCCOCCSc1ccc(Cl)cc1 | 9
CCOC(=O)c1sc(NC(=S)NC(=O)c2ccco2)nc1C | 13
O=C1CC(c2ccccc2)Sc2nc3ccccc3n21 (configuration not stated) | 10
O=C(CN1CCN(S(=O)(=O)c2ccc(Br)cc2)CC1)N/N=C/c1ccco1 | 13
Cc1ccc(C(=O)Nc2nnc(NC(=S)Nc3ccccc3)s2)cc1 | 12
Cn1ncc(Cl)c1C(=O)NC1C2CC3CC(C2)CC1C3 (configuration not stated) | 21
COc1ccc(-c2[nH]ncc2/C=N\NC(=O)c2ccc(C(C)(C)C)cc2)cc1OC | 16
c1cncc(CNc2ncn[nH]2)c1 | 19
Cc1nc2ccccc2c(=O)n1NC(=O)COc1ccccc1 | -8
CC(C)C(=O)Nc1ccc2c(c1)nc(CCN1CCN(c3ccccc3)CC1)n2C | 14
COc1ccccc1-c1c(C(F)(F)F)oc2cc(OC(=O)c3ccc([N+](=O)[O-])cc3)ccc2c1=O | 17
CC(CCn1cccn1)NC(=O)CCc1nnc(CCc2ccccc2)o1 (configuration not stated) | 2
CC(C)c1ccc(NC(=O)C(c2ccccc2)N(Cc2ccco2)C(=O)CC2NC(=O)NC2=O)cc1 (configuration not stated) | 6
COC(=O)c1sc(S(=O)(=O)NCCCN(C)C)c(C(=O)OC)c1C | 10
CN(C)S(=O)(=O)c1cccc(NC(=O)CN2C(=O)NC(Cc3c[nH]c4ccccc34)C2=O)c1 (configuration not stated) | 23
CCn1c(=O)c2cc(C(=O)N(C)c3cc(C)ccc3OC)sc2c2ccccc21 | 20

18 entries from above, sorted by molar mass, high to low:
SMILES | Biofilm kill mix
CC(C)c1ccc(NC(=O)C(c2ccccc2)N(Cc2ccco2)C(=O)CC2NC(=O)NC2=O)cc1 (configuration not stated) | 6
COc1ccccc1-c1c(C(F)(F)F)oc2cc(OC(=O)c3ccc([N+](=O)[O-])cc3)ccc2c1=O | 17
CCCC(C)NC(=O)COc1ccc(Sc2ccc(OCC(=O)NC(C)CCC)cc2)cc1 (configuration not stated) | 22
O=C(CN1CCN(S(=O)(=O)c2ccc(Br)cc2)CC1)N/N=C/c1ccco1 | 13
O=C(Nc1ccc(S(=O)(=O)N2CCCC2)cc1)c1ccc(OCC2CCCO2)cc1 (configuration not stated) | 0
CC(C)C(=O)Nc1ccc2c(c1)nc(CCN1CCN(c3ccccc3)CC1)n2C | 14
COC(=O)c1sc(S(=O)(=O)NCCCN(C)C)c(C(=O)OC)c1C | 10
Cc1ccc(C(=O)Nc2nnc(NC(=S)Nc3ccccc3)s2)cc1 | 12
CC(CCn1cccn1)NC(=O)CCc1nnc(CCc2ccccc2)o1 (configuration not stated) | 2
CCOC(=O)c1sc(NC(=S)NC(=O)c2ccco2)nc1C | 13
CCCSc1sc(C(=O)OC)c(-c2cccs2)c1C#N | 12
O=C(c1cc(Cl)ccc1[N+](=O)[O-])N1CCc2ccccc2C1 | 18
Cc1nc2ccccc2c(=O)n1NC(=O)COc1ccccc1 | -8
COCCCNCCOCCSc1ccc(Cl)cc1 | 9
O=C1CC(c2ccccc2)Sc2nc3ccccc3n21 (configuration not stated) | 10
O=C(c1snnc1-c1ccccc1)N1CCOCC1 | 14
Cc1ccc(N2CN=C3SCC(=O)N3C2)cc1C | 10
c1cncc(CNc2ncn[nH]2)c1 | 19

Next part
SMILES | Biofilm kill mix
Cc1oc(S(=O)(=O)N(C)C)cc1C(=O)Nc1ccc(F)cc1 | 7
O=C(C1CC1)N1N=C(C2CCCCC2)CC1(O)C(F)(F)F (configuration not stated) | 8
CNC(=O)c1ccsc1NC(=O)c1ccc(S(=O)(=O)N2CCc3ccccc32)cc1 | 3
CCN(C(=O)CSc1nnc(-c2c[nH]c3ccccc23)o1)C1CCS(=O)(=O)C1 (configuration not stated) | 16
COc1ccc(CN2C(=O)C(=O)N(CC(N)=O)C2=O)cc1 | 21
Cc1cc(-c2ccccc2)nc(N/N=C/c2cccnc2)n1 | 17
O=C1C(C2=NC(c3ccccn3)C3C(=O)N(c4ccc(OC(F)(F)F)cc4)C(=O)C23)=C(O)c2ccccc21 (configuration not stated) | 29
O=C1CCCN1c1ncc(S(=O)(=O)c2ccc([N+](=O)[O-])cc2)s1 | 17
COc1ccc(Br)cc1CN(C)CC(=O)Nc1ccccc1Cl | 12
CC(C)(C)OC(=O)NCCCCCc1nnc(SCc2cccc(F)c2)o1 | 13
COc1cc(/C=N/NC(=O)C(=O)NCc2ccco2)ccc1O | 12
C=C1CC(C(=O)N/N=C/c2ccccc2)C1 | 8
CC(C(=O)c1c[nH]c(C(N)=O)c1)c1ncc(C(F)(F)F)cc1Cl (configuration not stated) | 11
Cc1ccccc1OCCCc1c(C)n[nH]c1C | 8
S=C1NC(C23CC4CC(CC(C4)C2)C3)=CC(c2ccc3c(c2)OCO3)N1 (configuration not stated) | 17
COc1cccc(N2CC(C(=O)Nc3nnc(SCC(=O)c4ccccc4)s3)CC2=O)c1 (configuration not stated) | 14
O=C1CC(c2ccccc2)CC(=O)C1=CN1CCCC1 (configuration not stated) | 28
CNC(=O)/C(C#N)=C\c1ccc(CNS(=O)(=O)c2ccc(Cl)cc2)o1 | 7
Cc1cc(C(F)F)nn1CC(=O)NCc1ccccc1F | 18
Cc1ccc(CSCC(=O)N/N=C/c2cccc(OC3CSC3)c2)cc1 | 16
Cc1cc(C)c(/C=N/n2c(C)cc(C)c(C#N)c2=O)c(C)c1 | 10
Cc1ccc(CNC(=O)COC(=O)[C@@H]2CC(O)CN2S(=O)(=O)c2ccc3c(c2)OCCO3)cc1 (some centres not stated) | 12
COc1ccc2nc(NC(=O)c3cccc(-c4cc5ccccc5oc4=O)c3)sc2c1 | 15
CN(C)c1ccc(C2Nc3ccccc3C(=O)N2CCN2CCNC2=O)cc1 (configuration not stated) | 3
CC1CCN(C(=S)c2cccc([N+](=O)[O-])c2)CC1 | 12

(continued)
SMILES | Biofilm kill mix
Cc1ccc(-c2noc(N=O)c2NO)cc1 | 22
Fc1ccc(NC(=S)Nc2cc(-c3ccccc3)[nH]n2)cc1Cl | 26
Cc1csc2c(N(C)CCO)ncnc12 | 14
CC(=O)Nc1ccc(OCc2ccc(S(=O)(=O)Cc3ccccc3)cc2)cc1 | 26
CC(O)CNc1nc2ccccc2n1CC(=O)N1CCN(Cc2ccccc2)CC1 (configuration not stated) | 1
CN(C)c1ccc(P(=O)(Nc2ccccc2)N2CCOCC2)c(NC(=O)c2cccs2)c1 (configuration not stated) | 6
Nc1nnnn1/N=C/c1ccc(N2CCCCC2)c([N+](=O)[O-])c1 | 14
CCOc1ccc(CN2CCNC(=O)C2CC(=O)NCCc2ccccn2)cc1 (configuration not stated) | 11
CC1CCCCN1S(=O)(=O)c1ccc(C(=O)Nc2nnc(-c3ccncc3)o2)cc1 (configuration not stated) | 15
O=C(NC(=S)NNS(=O)(=O)c1ccccc1)c1cccnc1 | 32
Cc1cccc(OCC(=O)Nc2ccc3c(C)cc(=O)oc3c2)c1 | 17
CCCCCCC#Cc1cncc(C(=O)NNC(=O)Nc2cc(Cl)cc(Cl)c2)c1 | 21
O=C(Nc1ccc([N+](=O)[O-])cc1)Nc1ccc(OC(F)F)c(Cl)c1 | 19
O=C(O)c1c2c(nc3ccc(Cl)cc13)CCC2 | 11
O=C(N/N=C/c1ccc(N2CCOCC2)cc1)c1cccs1 | 18
CC(=O)N(C)c1ccc(NC(=O)c2ccc([N+](=O)[O-])cc2Cl)cc1 | 11
NNC(=O)c1nn(-c2ccccc2)cc1O | 12
CC(Sc1nncs1)C(=O)Nc1ccc(Cl)cn1 (configuration not stated) | 10
O=[N+]([O-])c1cccc(Cl)c1N1CCOCC1 | 16
COc1ccc(OC)c(N2C(=O)CC(Cc3ccc(Cl)cc3)C2=O)c1 (configuration not stated) | 17
CCOC(=O)c1c(-c2ccc(F)cc2)csc1NC(=O)CCN1C(=O)c2ccccc2C1=O | 12
CC(=O)/C=C(/C)NC(Cc1c[nH]c2ccccc12)C(=O)O (configuration not stated) | 12
CCn1c(SCc2cc(=O)n3ccsc3n2)nc2ccccc21 | 11
Cc1cc(C2=NNC(=NCCc3ccccc3)SC2)c(C)n1-c1c(C)n(C)n(-c2ccccc2)c1=O | 3
CCCNC(=O)COC(=O)/C(C#N)=C/c1cc(C)n(CCC)c1C | 12

Other entries follow.
SMILES | Biofilm kill mix
COc1cc(CCCN2C(N)=NC[C@@H]2Cc2ccc(O)cc2)cc(OC)c1OC | 10
CCOC(=O)C(=O)N=Nc1c(O)n(C)c2ccccc12 | 7
O=C(O)c1ccccc1-c1ccccc1C(=O)Nc1ccc(-c2nc3cc(Cl)ccc3o2)cc1 | 14
CCOCCCNC(=O)Cc1ccc(F)cc1 | 5
CC(C)CCNC(=O)CCSCCC(=O)NCCC(C)C | 8
Cc1cccc(C)c1NC(=S)N(Cc1cccnc1)Cc1ccccc1Cl | 9
CCCCC#Cc1cncc(C(=O)N/N=C/c2cccc(OC)c2)c1 | 27
Cc1onc(-c2ccccc2)c1C(=O)NNC(=S)NC(=O)c1ccc(Cl)cc1Cl | 17
Cc1ccc(Cn2c(N/N=C/c3ccncc3)nc3c2c(=O)n(C)c(=O)n3C)cc1 | 7
Cc1cc(Cl)ccc1OCC(=O)NCCOC(=O)Nc1sc(=S)n(C)c1C | 6
C/C(=N\NC(=O)c1ccc2c(c1)OCO2)c1ccco1 | 12
CC(C)(C)c1ccc(OC(=O)c2ccc3snnc3c2)cc1 | 7
COc1ccc(CC(=O)OCc2nnc(C3COc4ccccc4O3)o2)cc1OC (configuration not stated) | 6
Cc1ccc2c(CC(=O)NCC(C)(C)N3CCOCC3)coc2c1 | 2
CCCn1c(Nc2ccccc2C)nc2ccccc21 | 11
Cc1ccc(S(=O)(=O)N2CCCN(c3nccc(C(F)(F)F)n3)CC2)cc1 | 24
Cc1ccccc1N1C(=O)CN(Cc2sccc2C)C1=S | 10
CCCCC(=O)Nc1ccc(NC(=S)NC(=O)c2ccco2)cc1OC | 13
O=C(NCc1nnc(SCC(=O)N2CCOCC2)o1)c1cccs1 | 13
CCCOc1ccc(OCCN2CCCC(C)C2)cc1 (configuration not stated) | 10
CCOC(=O)c1ccc(N=Nc2c(C)c(C#N)c(O)[nH]c2=O)cc1 | 10
Cc1cccc(OCC(=O)NNC(=O)CCc2ccccc2)c1 | 34
Cc1c(NC(=O)c2cc(-c3ccc(O)cc3)on2)c(=O)n(-c2ccccc2)n1C | 26
O=C(NC(=S)NCCCN1CCOCC1)c1ccc(Br)cc1 | 11

Only part of the results is shown (hit frequency here may not be typical).
